Bioassay records from PubChem.
Rango dissoc inh: qHTS Assay for Inhibitors of RanGTP induced Rango (Ran-regulated importin-beta cargo) - Importin beta complex dissociation; 0.071% of 340,000 active; Potency, µM (titrated, usually from 46.1 µM), for inactives: top-dose activity change, negative = inhibition; Biochemical FRET Rango-importin beta, RanGTP-induced dissociation; active means falling FRET ratio curve, often poorly fitted, with flat reads before Ran was added; inconclusive means other falling curves, or compound fluorescence or quenching; inactive means flat or rising ratio curve;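 further: potency means the concentration at half of the fitted maximal effect; % of control where 0% means no effect; nearly all actives have a fitted effect of over 45% in size; -100% = wells without RanGTP and RCC1; the record marks most hits as doubtful in a second field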
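Rango FRET biosensor (snurportin-1 IBB flanked by N-terminal EYFP and C-terminal CFP10) at 0.1 uM, with 0.25 uM importin beta in PBS, 1mM DTT, 0.02% Tween-20, 0.1% BSA. 0.6 uM Ran, 2mM GTP and 0.2 uM RCC1 were then added for 45 min at room temperature. Inhibition read as loss of FRET rise.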
GLA inh pH 4.5: qHTS Assay for Inhibitors of Human alpha-Galactosidase at pH 4.5; purified enzyme, 4-MU-alpha-Gal fluorescence, pH 4.5; activity change, negative = inhibition, % at 105 µM; 230,000 tested, under 10 active; AID 1467, 2008; inconclusive = small, poorly fitted or top-dose-only inhibition, or a rising curve; inactive = flat fitted curve, though single readings scatter; no compound was filed as active;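 further: 0% = full activity with enzyme and -100% = basal without enzyme; dose as in the result columns while the protocol names 77 µM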
Target sequence (P06280 whole entry, looked up): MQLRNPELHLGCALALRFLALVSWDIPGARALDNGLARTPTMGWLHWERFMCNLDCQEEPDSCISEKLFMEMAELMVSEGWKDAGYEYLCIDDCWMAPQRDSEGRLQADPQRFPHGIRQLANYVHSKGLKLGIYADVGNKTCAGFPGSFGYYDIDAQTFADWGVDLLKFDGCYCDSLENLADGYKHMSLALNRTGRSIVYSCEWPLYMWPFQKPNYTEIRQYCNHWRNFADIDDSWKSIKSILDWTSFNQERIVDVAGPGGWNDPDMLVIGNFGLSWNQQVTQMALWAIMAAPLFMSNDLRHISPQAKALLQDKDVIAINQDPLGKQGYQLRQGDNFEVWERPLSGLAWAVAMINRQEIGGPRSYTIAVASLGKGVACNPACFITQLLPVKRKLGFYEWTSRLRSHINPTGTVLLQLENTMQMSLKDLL
miR-21 reporter: qHTS Assay for Modulators of miRNAs and/orActivators of miR-21; HeLa miR-21 FLuc reporter, luciferase, 48 h; 340,000 tested, under 10 active; Potency, µM (titrated, usually from 38.3 µM), for inactives: top-dose reporter change, positive = more light; active = well fitted rising curve with a large enough effect; inconclusive = small, poorly fitted or top-dose-only effect; inactive = no such curve, though single readings can be large or run the other way;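 further: % of control where 0% means no effect; miR-21 action dims this reporter so a rising signal means less miR-21 action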
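Luminescence from a firefly luciferase reporter carrying a miR-21 binding site downstream, stably expressed under a CMV promoter in HeLa cells that make miR-21 endogenously, reports miRNA modulation after 48 h compound exposure up to approximately 40uM final.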
Rango-impB inh: qHTS Assay for Inhibitors of Rango (Ran-regulated importin-beta cargo) - Importin beta complex formation; 0.031% of 340,000 active; AID 540263, 2011; Potency, µM (highest dose often 92.2 µM), inactives show at the top dose inhibition of complex formation; Rango CFP/YFP FRET sensor + importin beta, 45 min; active = rising FRET ratio curve, often small or poorly fitted; inconclusive = mostly compound fluorescence or quenching in the first reads; inactive = flat curves in all reads;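 further: potency means the concentration at half of the fitted maximal effect; 0% = DMSO wells and 100% = buffer wells lacking importin beta; nearly all actives have a fitted effect of over 15% in size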
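FRET biosensor (snurportin 1 IBB flanked by EYFP and cerulean), 50 nM, with compound 5 min, then 0.125 microM importin beta in PBS, 1 mM DTT, 0.02% Tween-20, 0.1% BSA. CFP/YFP ratio read after 45 min at room temperature; pre-read flags interference.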
* = called active by the depositor; ? = inconclusive; . = not tested or not shown; & = joins results of further samples. An excerpt, so the mix of outcomes need not match the whole.

SMILES | Rango dissoc inh | GLA inh pH 4.5 | miR-21 reporter | Rango-impB inh
Cc1cc2cc(CNC(=O)c3ccc(S(=O)(=O)N4CCOCC4)cc3)ccc2[nH]1 | -15.0% | -4.0 | 2.4% | 0.3%
Cc1c(Cl)cccc1NC(=O)c1ccc(-n2ccnc2)nc1 | -5.3% | 0.7 | -6.5% | 0.2%
Cc1ccc(C(=O)NCC(=O)O)cc1S(=O)(=O)N1CCCCC1 | -9.9% | 3.5 | -0.2% | 1.1%
CCc1nnc(NC(=O)CSc2nc3c(c(=O)n2-c2ccccc2OC)SCC3)s1 | -0.6% | 0.9 | ? | -3.8%
CC1(C)C[C@H]2C3=CCC4[C@@]5(C)CC[C@H](O[C@@H]6O[C@H](C(=O)O)[C@@H](O)[C@H](O)[C@H]6O)[C@@](C)(CO)C5CC[C@@]4(C)[C@]3(C)C[C@H](O)[C@@]2(CO)[C@@H](O)[C@@H]1O (stereo not given in full) | -9.3% | . | . | 0.8%
COc1cccc(C(=O)OCCN2CCCCC2)c1 | -6.9% | -7.4 | -9.0% | 4.2%
Cc1nn(C(C)(C)C)c(OC(=O)c2ccc3c(c2)OCO3)c1S(=O)(=O)c1ccccc1 | 10.0% | 1.4 | -22.8% | -0.2%
O=C(Nc1cccc(-c2nc3ccccc3s2)c1)c1cc(=O)c2ccccc2o1 | -2.9% | -1.4 | -15.8% | -0.1%
COc1ccc2c(c1)O[C@@H](c1cccc(C(F)(F)F)c1)[C@H](O)C2=O | . | -1.1&-7.3 | 22.7% | .
CCOC(=O)C1(Cc2ccccc2)CCN(Cc2ccc(C)s2)CC1 | 4.9% | 1.1 | 5.9% | ?
CCOC(=O)c1c(C)[nH]c(C(=O)OCc2csc(CC(=O)Nc3ccccc3C)n2)c1C | -0.5% | . | . | 3.8%
Cc1nc(N)sc1C(=O)N/N=C/c1ccco1 | 11.8% | 7.6 | -1.1% | -0.6%
CC(C)CCNC(=O)C(C)N(C(=O)Cn1nnc(-c2ccc(F)cc2)n1)C1CCCC1 (stereo not given) | -1.7% | -3.2 | -3.2% | 0.1%
CC(C)n1nnnc1SCC(=O)N1CCN(Cc2ccc3c(c2)OCCO3)CC1 | 18.6% | . | . | 0.0%
CC1(NC(=O)C2CCCCC2)CCS(=O)(=O)C1 (stereo not given) | 0.7% | -4.5 | 0.0% | 0.3%
CCN(CC(=O)NCc1ccc(Cl)cc1)C(=O)c1cnc(Cl)c(Cl)c1 | -7.3% | . | 2.0% | 2.6%
Cc1oc(-c2ccccc2Cl)nc1CN1CCCC1c1ccc(F)cc1 (stereo not given) | 6.8% | -10.5 | -2.6% | 0.5%
O=C(NC1CC1)c1nc2c(nnn2Cc2ccccc2Cl)c(=O)[nH]1 | 6.1% | 5.1 | -9.8% | -0.4%
NS(=O)(=O)c1ccc(N2CCCC2=O)c([N+](=O)[O-])c1 | -4.5% | 20.2 | -3.0% | -1.4%
COC(=O)CN1C(=O)N(c2ccccc2)C(N(O)C(=O)Nc2ccccc2)C1(C)C (stereo not given) | 1.2% | -6.3 | -9.0% | 1.8%

Some values from the results shown.
GLA inh pH 4.5 with `COc1ccc2c(c1)O[C@@H](c1cccc(C(F)(F)F)c1)[C@H](O)C2=O` = -1.1&-7.3
Rango dissoc inh with `CCOC(=O)C1(Cc2ccccc2)CCN(Cc2ccc(C)s2)CC1` = 4.9%
miR-21 reporter with `NS(=O)(=O)c1ccc(N2CCCC2=O)c([N+](=O)[O-])c1` = -3.0%
GLA inh pH 4.5 with `O=C(NC1CC1)c1nc2c(nnn2Cc2ccccc2Cl)c(=O)[nH]1` = 5.1
GLA inh pH 4.5 with `Cc1cc2cc(CNC(=O)c3ccc(S(=O)(=O)N4CCOCC4)cc3)ccc2[nH]1` = -4.0

Continued:
SMILES | Rango dissoc inh | GLA inh pH 4.5 | miR-21 reporter | Rango-impB inh
C=CCN1C(=O)c2ccc(C(=O)N(CCC)CC(=O)Nc3ccccc3C)cc2C1=O | -5.3% | . | . | -2.3%
Cc1nn(-c2ccccc2)c(C)c1C(=O)OCC(=O)NC12CC3CC(CC(C3)C1)C2 | 3.1% | 1.5 | -4.3% | -1.9%
COCCN(CCOC)S(=O)(=O)c1ccc(NC(=O)c2cnccn2)cc1 | -18.4% | . | -9.9% | 0.5%
CCC(C)C(NC(=O)c1ccccc1)C(=O)Nc1ccc(S(=O)(=O)Nc2cc(C)nc(C)n2)cc1 (stereo not given) | 2.1% | . | . | -2.9%
O=C(Nc1ccc(N2CCOCC2)c(Cl)c1)c1ncn[nH]1 | 4.1% | -3.8 | -9.2% | 2.9%
CCOc1cccc(C(c2c(C)n(C)n(-c3ccccc3)c2=O)c2c(C)n(C)n(-c3ccccc3)c2=O)c1OC | -2.7% | . | -4.1%&3.6% | 6.3%
O=C(OC1CCOC1=O)c1ccc(CO)cc1 (stereo not given) | -2.7% | . | 0.5% | 0.6%
COc1ccccc1N1CC(C(=O)OCC(=O)Nc2c(C)cccc2C)CC1=O (stereo not given) | 4.4% | . | 10.2% | -5.0%
O=C(Nc1cccc2ccccc12)c1ccc(OC(=S)N2CCOCC2)cc1 | -1.3% | -1.6 | -0.5% | 0.2%
O=C(NCc1ccccn1)C1Nc2ccc(OC(F)(F)F)cc2C2C=CCC12 (stereo not given) | -13.2% | . | . | 0.6%
Cc1nc(CCNC(=O)c2cccs2)cs1 | 5.9% | -19.2 | -24.4% | 3.6%
COc1ccc(C)cc1S(=O)(=O)N(CC(=O)NC1CCCC1)c1ccc(F)cc1 | 8.0% | . | 5.9% | -0.8%
C=CCOC(=O)C(C#N)c1nc2ccccc2nc1N1CCN(c2ccccc2OC)CC1 (stereo not given) | ? | -1.9 | -14.7% | ?
COC(CNC(=O)Cn1nc(Cc2ccncc2)c2ccccc2c1=O)OC | 15.9% | . | -2.5% | 0.1%
Cc1ccc(NC(=O)CN(C)C(=O)Cn2nnc(-c3ccccc3C)n2)cc1 | -0.7% | . | . | 0.3%
Cc1ncc(CN2CCC(N3CCC(C(=O)N4CCCC4)CC3)CC2)s1 | -7.7% | . | 1.2% | -1.9%
CC(=O)c1c(C)[nH]c(C(=O)CN2C(=O)NC3(CCCCC3C)C2=O)c1C (stereo not given) | -2.9% | . | . | -3.0%
CCOC(=O)C1=CN(Cc2cccc(F)c2)S(=O)(=O)N(C)C1c1ccccc1 (stereo not given) | 4.2% | . | . | -1.2%
COC(=O)CSc1nc2c(cnn2-c2ccc(Cl)cc2)c(=O)[nH]1 | -0.7% | . | 0.0% | -1.5%
O=C1CCCCCN1Cc1ccccc1 | 7.8% | . | -1.0% | 7.8%
CCC(CO)Oc1cc(NCc2ccc(C)cc2)c2ncn(C(C)C)c2c1 (stereo not given) | ? | . | . | ?
NC(=O)N/N=C/c1ccc(-c2cccc(C(F)(F)F)c2)o1 | 0.2% | -7.0 | -5.7% | -0.9%
CCCCN1CCc2c(c3ccccc3n2Cc2ccccc2)C1 | -1.2% | . | 16.4% | 0.2%
Cc1sc(NC(=O)c2cccs2)c(C(N)=O)c1C | -4.3% | -13.9 | -32.9% | -2.9%
CCOc1ccccc1NC(=O)CSc1nnnn1-c1ccc(C(=O)OC)cc1 | -0.2% | 1.1 | -3.3% | -2.2%
CCN(CC)C(=O)c1ccc(-c2nnc(OC)c3ccccc23)cc1 | -2.0% | -0.5 | -1.4% | 5.6%
CCN(CC)CCN(C(=O)c1ccc(C(=O)c2ccccc2)cc1)c1nc2c(OC)cccc2s1 | 0.1% | . | -0.4% | 3.4%
CN(C(=O)COC(=O)c1ccc(Cl)nc1)c1c(N)n(Cc2ccccc2)c(=O)[nH]c1=O | 12.2% | . | . | -5.2%
CCC(=NCCc1ccc(OC)c(OC)c1)C1=C(O)CC(C)(C)CC1=O | 17.4% | 12.5 | 2.1% | -1.0%
COc1c(C)cc(C(=O)C2CCCN(C(=O)Cn3nc(C)nc3C)C2)cc1C (stereo not given) | 12.4% | . | -6.0% | 4.3%
COc1ccc(-c2csc(NC(=O)c3cccc(N4C(=O)CCC4=O)c3)n2)cc1C | -7.3% | . | 0.7% | -0.4%
Cc1nnnn1/C(=C\c1ccccc1)C(=O)OCC(=O)NC1CCCCC1 | -14.0% | . | . | 3.1%
CCOC(=O)C1CSC(CC(=O)Nc2ccc(OCC)cc2)C(=O)N1 (stereo not given) | -13.1% | -0.3 | -3.8% | -1.6%
O=C1NC(=S)N/C1=C\c1ccccc1OCc1ccc(C(=O)O)cc1 | 0.2% | -13.7 | -8.0% | 2.5%
COc1ccccc1-c1nn2c(-c3ccccc3Cl)nnc2s1 | . | 12.2 | -10.4% | .
CSc1nc(N)nc2c1ncn2CC(=O)Nc1ccc(C)c(C)c1 | -7.1% | . | . | -2.7%
O=C1C=C(NCc2ccc3c(c2)OCO3)CC(c2ccccc2)C1 (stereo not given) | 11.6% | 4.2 | 9.1% | -0.9%
CN1CCN(C(=O)CCNC(=O)Cn2ccc3ccccc3c2=O)CC1 | 1.7% | -3.3 | 1.1% | 1.1%
CCN(CC(=O)NCc1ccc(Cl)cc1)CC(=O)Nc1ccc(C(N)=O)cc1 | -5.9% | -4.7 | 3.2% | -3.3%
COc1ccc(CCc2nnc(CCC(=O)NCc3ccc4ncccc4c3)o2)cc1 | 12.1% | 1.6 | -16.0% | 3.0%
COc1ccccc1CNC(=O)c1cccc(-c2ccc(C)c3ccccc23)n1 | . | -4.6&-7.1 | -17.9% | .
O=C(c1cc(-c2ccco2)on1)N1CCN(c2ccccc2)CC1 | 10.0% | -7.6 | -9.0% | -0.5%
Cc1ccc2oc(-c3ccc(C)c(NC(=S)NC(=O)c4cccs4)c3)nc2c1 | 32.9% | -5.5 | -74.4% | 2.1%
CN1CC(=O)N2[C@H]3c4ccccc4OC[C@@H]3[C@H](c3ccccc3)[C@]2(C)C1=O | -11.6% | . | . | -1.1%
O=C(NC(=S)Nc1cc([N+](=O)[O-])ccc1Cl)c1ccccc1 | 11.1% | 5.8 | -28.7% | -0.1%
COc1ccc(CNC(=O)C2CCN(C(=O)c3ccco3)CC2)cc1 | -9.2% | . | -1.5% | -2.9%
Cc1oc(C(C)(C)C)c(CN2CCCC2)c1C(=O)O | -1.0% | 2.8 | -3.1% | 0.8%
O=C(O)c1ccc(N/N=C/c2cccc3cccnc23)cc1 | ? | -1.2 | -65.9% | ?
Cc1ccnc(NC(=O)CCC(=O)N(CC(=O)NC(C)(C)C)c2ccc(F)c(Cl)c2)c1 | 1.6% | 3.7 | -7.9% | 0.0%
Clc1ccc2nc(-c3ccccn3)c(Nc3ccc4c(c3)OCO4)n2c1 | -8.5% | 3.3 | -21.1% | 0.0%
CCn1c(C)nc2cc(C(=O)NNC(=S)NC(=O)c3ccc(OC)cc3)ccc21 | 4.1% | -3.4 | -2.5% | 1.6%
Cc1cccc(N2C(=O)CC(Cn3nc(C)cc3C)C2=O)c1 (stereo not given) | -18.7% | 2.1 | 4.4% | 1.1%
CC(=O)Nc1ccc(NC(=O)C(C)OC(=O)/C=C/c2cnc3ccccc3n2)cc1 (stereo not given) | 0.5% | -6.3 | -2.4% | 4.9%
COCCCNC(=O)C(=O)C1C(=O)Nc2ccccc21 (stereo not given) | 1.4% | 5.5 | -1.1% | 5.8%
C/C(NC(=O)c1cccs1)=C1\C(=O)C[C@@H]2[C@H]1C2(C)C | 4.4% | . | -51.1% | 6.9%
COc1ccc(OCC(=O)NC(CC(=O)O)c2ccc(OC)c(OC)c2)cc1 (stereo not given) | -14.9% | 4.9 | -1.8% | 4.8%

Ordered by length of the SMILES (ascending): three of the compounds above.
SMILES | Rango dissoc inh | GLA inh pH 4.5 | miR-21 reporter | Rango-impB inh
CC1(NC(=O)C2CCCCC2)CCS(=O)(=O)C1 (stereo not given) | 0.7% | -4.5 | 0.0% | 0.3%
O=C(NC1CC1)c1nc2c(nnn2Cc2ccccc2Cl)c(=O)[nH]1 | 6.1% | 5.1 | -9.8% | -0.4%
CC(=O)Nc1ccc(NC(=O)C(C)OC(=O)/C=C/c2cnc3ccccc3n2)cc1 (stereo not given) | 0.5% | -6.3 | -2.4% | 4.9%
